Screening data (PubChem)
KCNQ2 enhance: potentiators of rat KCNQ2 potassium channel. B-score at 10 µM. hit rate 0.54% among 310,000. CHO-K1 KCNQ2, FluxOR thallium flux fluorescence; stronger effect = higher value. O88943. AID 2239;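 active means fluorescence ratio B-score at least 3 SD of library B-scores, with initial fluorescence B-score within 3 SD, cut at about 5.3 in these data; same plate scores as AID 2156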;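 further: B-score of peak minus minimum over baseline fluorescence ratio after K+ and Tl+ stimulus; positive B-score means potentiation of KCNQ2 with more thallium influx and brighter signal; only the inactives scoring about 0 or higher are listed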
Target sequence (O88943 whole entry, looked up): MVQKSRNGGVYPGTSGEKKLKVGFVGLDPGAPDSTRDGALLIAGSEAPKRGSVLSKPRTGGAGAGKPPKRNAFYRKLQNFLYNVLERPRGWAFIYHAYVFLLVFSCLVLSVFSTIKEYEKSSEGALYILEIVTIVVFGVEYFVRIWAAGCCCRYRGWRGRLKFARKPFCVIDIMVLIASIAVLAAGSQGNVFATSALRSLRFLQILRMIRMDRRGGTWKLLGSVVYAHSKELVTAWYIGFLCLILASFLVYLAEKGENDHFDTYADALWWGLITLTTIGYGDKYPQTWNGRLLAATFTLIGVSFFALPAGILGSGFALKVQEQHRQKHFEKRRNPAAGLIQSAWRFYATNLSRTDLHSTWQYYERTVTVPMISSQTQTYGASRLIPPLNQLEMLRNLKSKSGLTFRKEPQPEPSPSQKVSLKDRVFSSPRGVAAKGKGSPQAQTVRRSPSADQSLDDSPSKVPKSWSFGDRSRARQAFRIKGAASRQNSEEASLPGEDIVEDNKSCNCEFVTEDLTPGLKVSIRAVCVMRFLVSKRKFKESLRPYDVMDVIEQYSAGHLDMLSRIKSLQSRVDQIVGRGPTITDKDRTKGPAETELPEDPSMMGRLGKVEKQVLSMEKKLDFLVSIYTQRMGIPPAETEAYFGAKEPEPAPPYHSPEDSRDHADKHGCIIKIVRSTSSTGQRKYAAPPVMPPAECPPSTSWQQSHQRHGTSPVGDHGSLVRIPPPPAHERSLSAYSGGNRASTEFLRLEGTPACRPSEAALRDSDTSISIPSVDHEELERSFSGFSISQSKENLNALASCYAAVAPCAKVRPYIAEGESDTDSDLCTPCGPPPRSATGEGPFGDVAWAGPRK
KCNQ2 enhance baseline: also measured in KCNQ2 enhance; calls as there; B-score; compound at 10 µM; measured here: initial fluorescence intensity artifact check;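 brightness before thallium and not channel activity; 0 = typical well and far values either way flag optical interference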
Numbers without * were called inactive. Only part of the results is shown, so the mix of outcomes need not match the whole.

molecule,KCNQ2 enhance,KCNQ2 enhance baseline
O=C(N/N=C/c1ccc(O)c(O)c1)NC12CC3CC(CC(C3)C1)C2,1,-2.4
O=C(NC(=O)N1CCN(c2ccccc2F)CC1)c1ccccc1,0.6,-1.1
CC(=O)c1cc(C#N)c(SCc2ccc([N+](=O)[O-])cc2)nc1C,0.22,-1.1
Cc1ccc(N(CC(=O)NC2CCCCC2)C(=O)CNC(=O)c2ccco2)cc1C,0.69,0.38
Cc1nn(CC(=O)N2CC(=O)Nc3ccccc32)c(C)c1[N+](=O)[O-],0.24,-0.17
Cc1ccc(NC(=O)c2ccc3[nH]c(=O)c(=O)[nH]c3c2)nc1,0.17,0.75
O=C(NC1CCCC1)C(c1cccs1)N(CC1CCCO1)C(=O)Cc1cccs1 (stereo unspecified),0.03,0.35
COc1cccc(NC(=O)N2C3CCCC2CC(NC(=O)C(C)(C)C)C3)c1 (stereo unspecified),0.14,-0.03
Cc1ccc(N=Cc2c(O)c3ccccc3oc2=O)cc1F,0.53,0.07
O=C(CSc1nc2ccc(NC(=O)C3CCCCC3)cc2s1)NCC1CCCO1 (stereo unspecified),0.03,-0.08

Some of these compounds in order of SMILES length, rising.
molecule,KCNQ2 enhance,KCNQ2 enhance baseline
Cc1ccc(N=Cc2c(O)c3ccccc3oc2=O)cc1F,0.53,0.07
O=C(NC(=O)N1CCN(c2ccccc2F)CC1)c1ccccc1,0.6,-1.1
O=C(CSc1nc2ccc(NC(=O)C3CCCCC3)cc2s1)NCC1CCCO1 (stereo unspecified),0.03,-0.08
CC(=O)c1cc(C#N)c(SCc2ccc([N+](=O)[O-])cc2)nc1C,0.22,-1.1
COc1cccc(NC(=O)N2C3CCCC2CC(NC(=O)C(C)(C)C)C3)c1 (stereo unspecified),0.14,-0.03
Cc1ccc(N(CC(=O)NC2CCCCC2)C(=O)CNC(=O)c2ccco2)cc1C,0.69,0.38

The results go on.
molecule,KCNQ2 enhance,KCNQ2 enhance baseline
O=C(/C=C/c1ccc(Cl)c(Cl)c1)NCCCn1ccnc1,0.49,2
CCOc1ccccc1N(CC(=O)N/N=C(\C)c1cccc(Br)c1)S(C)(=O)=O,0.82,1.1
Cc1ccsc1-c1cc(C(=O)O)c2c(ccc3ccccc32)n1,0.45,-0.14
COc1ccc(S(=O)(=O)N2CCCCC2)cc1NC(=O)CSc1ncnc2ccccc12,0.65,-0.5
CCOc1cc(NC(=S)NCCCN2CCOCC2)c(OCC)cc1NC(=O)c1ccco1,0.26,-0.73
C=C(C)C(=O)Nc1cccc(C2=NOC3(C2)C[C@H](C(N)=O)N(C(=O)/C=C/C)C3)c1 (stereo partly specified),0.64,0.84
CN(CCc1ccccn1)C(=O)CCC1CCCN(C(=O)c2ccsc2)C1 (stereo unspecified),0.04,-2
Nc1nnc(Sc2ccc(Cl)cc2[N+](=O)[O-])s1,0.85,0.87
Cc1ccc2oc(=O)cc(CN3CCCCC3)c2c1,1.3,1.1
Cc1ccccc1Cn1nc(C)c(NC(=O)c2ccccc2)c1C,0.03,-0.4
CCOc1cccc(N2C(=O)CC(N3CCN(c4nc5ccccc5s4)CC3)C2=O)c1 (stereo unspecified),0.97,-1.7
O=C(c1ccc2c(c1)OCO2)N(c1ccc(Cl)cc1)C1C=CS(=O)(=O)C1 (stereo unspecified),1.1,-0.21
CC(C)NC(=O)NC(=O)COC(=O)c1ccccc1O,1.3,0.01
COc1ccc(CCNC(=O)CCNS(=O)(=O)c2cc(Br)cnc2N)cc1OC,0.54,1.7
O=C(Cn1cccc1)N1CCN(c2ccc(F)cc2)CC1,1.5,-0.23
Cc1nn(-c2ccccc2)c2c1C1(C(=O)N(C(C)C)c3ccccc31)C(C#N)=C(N)O2 (stereo unspecified),0.76,-1.4
c1ccc(-c2nc(-c3ccccn3)nc(-c3ccccn3)n2)nc1,0.78,0.52
CC1(C(=O)Nc2nc3ccc(S(C)(=O)=O)cc3s2)CC1(Cl)Cl (stereo unspecified),0.01,-2.6
CCn1c(CNc2ccc(C(=O)O)cc2)nc2ccccc21,0.2,-0.5
COC(=O)/C=c1/s/c(=C(\C#N)C(=O)NCc2ccco2)n(-c2ccccc2)c1=O,1.7,0.06
CCc1noc(C)c1C(=O)Nc1cc(S(=O)(=O)N(CC)CC)ccc1N1CCOCC1,0.32,-2.1
Cc1ccc(Nc2ccc(C(=O)O)cc2N)cc1,1.4,-0.96
NC(=O)c1c(NC(=O)CSc2nnc(-c3ccco3)n2-c2ccccc2)sc2c1CCC2,0.82,-2.4
CC(C)OC(=O)c1c2c(n3ccccc13)C(=O)c1ccccc1C2=O,0.71,1.6
CCCN1CCC(CCOc2ccccc2)(C(=O)OCC)CC1,0.92,-0.91
COc1ccc(CCNC(=O)COc2ccc(S(=O)(=O)NCC(C)C)cc2Cl)cc1OC,1.3,0.03
COc1cc2c(cc1NC(=O)COC(=O)c1ccccc1)oc1ccccc12,1.1,0.6
Cc1ccc(NS(=O)(=O)c2cccc(C(=O)Nc3cc(C)on3)c2)cc1,0.72,1.3
Cc1ccc2oc(=O)n(CC(=O)N3CCOCC3)c2c1,0.66,0.66
COC/C=C/C1=CC2=CC(=O)C(C)(OC(=O)c3cnc4ccccc4n3)C(=O)C2=CN1CC1CC1 (stereo unspecified),0.01,0.36
CCN(CC)S(=O)(=O)c1cccc(C(=O)Nc2ccc3c(c2)OCO3)c1,0.21,-0.33
CC(C)(CSc1ccccn1)NS(=O)(=O)c1ccccc1,0.27,-0.69
COCCn1c(COC)nc2ccccc21,0.95,0.61
O=[N+]([O-])c1ccc(S(=O)(=O)Nc2nc3ccccc3nc2Nc2ccccc2)cc1,0.41,-1.1
CCOC(=O)c1c(NC(=O)C2CC(Cl)=CCC2C(=O)O)sc2c1CC(C)(C)OC2 (stereo unspecified),0.1,1.5
O=C(O)c1[nH]c2ccccc2c1C(c1cc(Cl)cc([N+](=O)[O-])c1O)c1c(C(=O)O)[nH]c2ccccc12,0.04,-1.6
Cc1cc2nc(-c3ccc(SCC(=O)Nc4ccc(S(=O)(=O)NC5CC5)cc4)nc3)[nH]c2cc1C,0.65,-1.7
CN1CCN(c2ccc(S(=O)(=O)N3CCCCC3)cc2[N+](=O)[O-])CC1,0.88,0.01
COc1cc(C(=O)Nc2ccc(N(C)C)cc2)c([N+](=O)[O-])cc1OC,1.1,-0.12
S=c1[nH]nc(Cn2c(-c3ccccn3)nc3ccccc32)n1-c1ccc2c(c1)OCCO2,0.65,-0.51

2 entries from above, as labelled records:
> O=[N+]([O-])c1ccc(S(=O)(=O)Nc2nc3ccccc3nc2Nc2ccccc2)cc1
  KCNQ2 enhance: 0.41; KCNQ2 enhance baseline: -1.1
> CN1CCN(c2ccc(S(=O)(=O)N3CCCCC3)cc2[N+](=O)[O-])CC1
  KCNQ2 enhance: 0.88; KCNQ2 enhance baseline: 0.01

Later entries:
molecule,KCNQ2 enhance,KCNQ2 enhance baseline
CN1C(=S)SC(/[N+]([O-])=C/c2cccnc2)C1(C)C (stereo unspecified),2.2,0.82
Cc1cc(C)c2ccc(N)nc2c1O,12*,1.2*
CC1CCCC(NC(=O)C2CCN(S(=O)(=O)c3cccc4nonc34)CC2)C1C (stereo unspecified),1.4,0.01
CCOC(=O)c1ccccc1NC(=O)CN(c1cccc(OC)c1)S(C)(=O)=O,0.84,-1.6
COc1ccc(OCC(=O)N2CCN(C(=O)c3ccccc3)CC2)cc1,0.01,0.01
C=CCN(CC=C)S(=O)(=O)c1ccc(C(=O)Nc2sc3c(c2C(N)=O)CCCCC3)cc1,0.51,-2.2
CC(NCCC1(C(C)C)CCOC(C)(C)C1)c1cccs1 (stereo unspecified),0.04,-0.14
COc1cccc2c1OCC(CN1CCN(CCC(C)C)C(CCO)C1)=C2 (stereo unspecified),2.1,0.12
COc1ccc(/C=C/C(=O)OCC(=O)c2ccc(S(=O)(=O)N3CCCCC3)cc2)cc1OC,0.97,0.03
Nc1ccccc1-c1nnn(CC(=O)N2CCCc3ccccc32)n1,0.96,0.19
O=C1CN(C(=O)COC(=O)c2cccc(OCc3ccccc3)c2)c2ccccc2N1,1.1,-0.74
O=[N+]([O-])c1cnn(-c2nc(-c3ccco3)cc(C(F)(F)F)n2)c1,0.84,0.03
O=C1N/C(=N\N=C\c2cccs2)SC1Cc1cccc(Cl)c1 (stereo unspecified),0.05,0
CC1CCCN(C(=O)CSc2n[nH]c(-c3cccs3)n2)C1 (stereo unspecified),0.02,1.9
CC(C)CSC1=NSC2=NC(=O)/C(=C\c3cccs3)C(=N)N12,7.4*,-3.5*
CCOCCCNC(=S)N1CCC(C(=O)c2ccc(C)cc2)CC1,0.43,-0.12
COc1cc(/C=N/NS(=O)(=O)c2ccc(C(C)(C)C)cc2)cc([N+](=O)[O-])c1O,0.31,-1.1
COc1ccc(NC(=O)CN2CCN(C(=O)N3CCOCC3)CC2)cc1,0.12,0.08
O=C(O)c1ccc(N=Cc2nc(-c3ccco3)oc2O)cc1,0.04,0.07
CCc1ccc(-n2c(=O)c3c(C)c(C(=O)N(C)C)sc3n(CC(=O)NCc3ccco3)c2=O)cc1,0.3,-3
Cc1nn(-c2cc(N3CCCCCC3)ccc2[N+](=O)[O-])c(=O)c2ccccc12,0.73,1.9
Cc1cc(C)cc(C(=O)NCC(=O)OCC(=O)N2c3ccccc3NC(=O)C2(C)C)c1,1.2,0.8
COc1ccc(-c2nnc(SCc3c(C)noc3C)n2N)cc1OC,1.3,-0.94
CCc1cc2cccc(C)c2nc1SCC(=O)Nc1cc(C)on1,0.58,-1.5
CCn1c(SCC(=O)Nc2sc3c(c2C#N)CCCC3)nnc1-c1ccco1,1.2,-0.54
Cc1ccc([N+](=O)[O-])cc1S(=O)(=O)Nc1cccc(-c2ccc(N3CCOCC3)nn2)c1,1.5,0.65
CCCCc1nc2ccccc2[nH]1,2.5,-0.09
COC(=O)/C=C/c1ccc(-n2ccnc2)cc1,0.54,0.34
O=c1[nH]nnc2c1sc1nc(N3CCOCC3)c3c(c12)CCCC3,1.7,-0.03
Cc1cc(C(F)F)n2nc(C(=O)Nc3ccc(S(=O)(=O)N4CCCCCC4)cc3)nc2n1,0.07,-0.06
O=C(/C=C/c1ccc([N+](=O)[O-])cc1)NCc1ccco1,0.51,1.2
CN(CCO)c1nc(N)c(C#N)c(CC#N)c1C#N,0.08,0.64
COc1ccc(-c2nc(-c3ccc(C(=O)O)cc3)no2)cc1,0.03,-0.79
CCS(=O)(=O)c1ccc(O)c(NC(=O)Nc2cccc3ccccc23)c1,1.1,-0.94
CCS(=O)(=O)n1nc(-c2ccccc2)nc1NCc1ccco1,0.01,0
COc1ccc(C(C(=O)NC(C)(C)C)N(C(=O)CCC(=O)Nc2cc(C)on2)c2ccccc2F)cc1 (stereo unspecified),0.27,0.06
Cc1ccc(-n2nc3ccc(NC(=O)/C=C/c4ccco4)cc3n2)cc1,1.3,-0.72
CSc1ccccc1NC(=O)COc1nsnc1N1CCOCC1,0.1,-0.34
C=CCn1c(C)cc(C(=O)COC(=O)c2ccc(N)c([N+](=O)[O-])c2)c1C,0.02,-0.81
COc1ccc(C(=O)NCCCn2cccn2)cc1OC1CCN(C(C)=O)CC1,0.54,-0.11
Clc1nc2ccccc2cc1-c1nnn(-c2ccccc2)n1,0.83,-0.21
CCOc1ccc(-c2c(C(=O)N/N=C(\C)c3ccccc3OC)nnn2-c2nonc2N)cc1,0.76,-2.5
Cc1cc(=O)n2nc(N3CCC(C(=O)NCc4ccccc4)CC3)sc2n1,0.13,-0.05
CCCNC(=O)c1ccc(N2CCC3(CC2)CC(c2cccc(Br)c2)=NO3)c(NC(=O)c2ccc(Br)cc2)c1,0.72,0.15
O=C(O)CCCN1C(=O)/C(=C/c2ccncc2)SC1=S,1.4,-0.97
Cc1c(C(=O)Nc2ccc(C(F)(F)F)cc2)sc2ncn(CC(=O)N3CCN(c4ccccn4)CC3)c(=O)c12,0.98,0.53
CC(C)(C)C(=O)N1CCC(O)(CS(=O)(=O)Cc2ccc(Cl)cc2)CC1,0.5,0.36
CCOC(=O)c1c(N)c2cc([N+](=O)[O-])ccc2n1C,1,-0.43
CSCCC(NC(=O)C1CCC(C)CC1)C(=O)O (stereo unspecified),0.51,-1.3
Cc1ccc(Cl)cc1-n1c(=O)cc(N2CCN(C(=O)c3ccco3)CC2)[nH]c1=O,2.7,0.61

Carrying on.
molecule,KCNQ2 enhance,KCNQ2 enhance baseline
CNC(=O)C1CC(=O)N(CCCc2ccccc2)C(=Nc2ccccc2)S1 (stereo unspecified),0.05,-1.7
CC1CCCN(C(=O)c2ccccc2OC2CCN(S(C)(=O)=O)CC2)C1 (stereo unspecified),1.3,0.06
C=C(C)CNC(=S)N/N=C/C1=CCC2CC1C2(C)C (stereo unspecified),1.4,-2.5
CC(=O)Nc1ccc(S(=O)(=O)NCc2nnnn2-c2ccc(F)cc2)cc1,0.1,1.4
Cn1cccc1-c1nc2ccc(NC(=O)c3ccccc3)cc2[nH]1,0.56,-1.2
CCOc1cc(/C=C2\C(=N)N3N=C(S(C)(=O)=O)SC3=NC2=O)ccc1OCCOc1cccc(OC)c1,1.8,-0.75
CC(=O)c1ccc(Oc2nc(-c3cccnc3)nc3ccccc23)cc1,1.1,-1.9
CC(=O)Cc1nsc(NC(=O)c2ccc(-c3cccc(Cl)c3)o2)n1,1,-0.79
C=CCC(NCc1ccco1)c1ccc(OC)c(OC)c1 (stereo unspecified),1.4,-0.78
COc1ccc2[nH]c3c(c2c1)CCNC3C1CC=C(C)CC1 (stereo unspecified),3.1,1.6
Cc1ccc(-n2c(C)cc(/C=N/Nc3ccc([N+](=O)[O-])cn3)c2C)cc1,0.78,0.61
